CapD inh: blocks the Bacillus anthracis CapD enzyme; purified CapD enzyme, fluorescence intensity read-out; hits give low values; some hits fall short of the stated cut; z-score (test concentration not listed); 140,000 tested, 0.23% active; AID 492967;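 active = z-score under -4 in either of two replicates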;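 also: stock transfer was 100 nL into about 40 µL; score is relative to mean and spread of the plate; one replicate is shown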
AID504770: growth inhibitors of E. coli YBA685 in a screen for V. cholerae RctB (chromosome II replication) inhibitors. E. coli YBA685 rctB-dependent plasmid, OD600 growth, 3 h; hits give low values. z-score (concentration not given with the values). 130,000 tested, 0.27% active;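 active = z-score under -2 on both plates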;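 also: wells of about 30 µL received 100 nL stock; score is relative to mean and SD of the test wells; the first replicate is given; strong numbers were not always called active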
The depositor's hits bear a star; / = no result given. Outcome played no part in choosing rows, and some 0.37% of all compounds hit somewhere here.

Start of the data: the first 16 compounds (preview)
SMILES	CapD inh	AID504770
COc1ccnc(Nc2ccc(I)cc2)c1C#N	-0.14	/
O=C(NCCN1CCN(c2cccc(Cl)c2)CC1)Nc1ccc(Cl)cc1	-0.15	2.2
CC1CCN(c2cc(N3CCC(C)CC3)c([N+](=O)[O-])cc2/C=c2/sc3nc4ccccc4n3c2=O)CC1	-0.12	/
CC(C)(CCO)NC(=S)NC1CC2C=CC1C2 (stereo not drawn)	1.1	0.5
COc1ccc(Cl)cc1NC(=O)CSC1CCCC1	/	0.45
CC1CCc2cc(F)ccc2N1C(=O)c1ccc(=O)[nH]n1 (stereo not drawn)	/	-0.55
CCC(=O)N1CCN(CCN=CC2=C(O)CC(c3ccccc3)CC2=O)CC1 (stereo not drawn)	0.34	-0.05
O=C(CNS(=O)(=O)/C=C/c1ccccc1)OC1CCOC1=O (stereo not drawn)	/	1.5
N#Cc1c(-c2ccccc2)cc(-c2cccs2)nc1SCS(=O)Cc1ccccc1 (stereo not drawn)	20	-0.65
NNC(=O)CO/N=C/c1ccc(Cl)cc1Cl	-0.035	-0.4
Cc1cc(C)c(-n2nnnc2SCc2nc(N)nc(N3CCOCC3)n2)c(C)c1	-0.12	/
CC(OC(=O)c1cn(C)c2ccccc12)C(=O)N(C)c1ccccc1 (stereo not drawn)	/	-0.55
CC1=NC2(CCN(C(=O)Nc3ccc(F)cc3F)CC2)N=C1c1cccc(C(F)(F)F)c1	0.16	/
CC(=O)O/N=C/c1ccc(N(C)C)cc1	2	-1.2
CC1=NN(C2=NS(=O)(=O)c3ccccc32)C(C)(O)C1 (stereo not drawn)	/	-0.05
Cc1ccc(S(=O)(=O)CCC(=O)OCc2nnc(-c3ccccc3Br)o2)cc1	/	1.2

The listing, from the first entry:
SMILES	CapD inh	AID504770
COc1ccnc(Nc2ccc(I)cc2)c1C#N	-0.14	/
O=C(NCCN1CCN(c2cccc(Cl)c2)CC1)Nc1ccc(Cl)cc1	-0.15	2.2
CC1CCN(c2cc(N3CCC(C)CC3)c([N+](=O)[O-])cc2/C=c2/sc3nc4ccccc4n3c2=O)CC1	-0.12	/
CC(C)(CCO)NC(=S)NC1CC2C=CC1C2 (stereo not drawn)	1.1	0.5
COc1ccc(Cl)cc1NC(=O)CSC1CCCC1	/	0.45
CC1CCc2cc(F)ccc2N1C(=O)c1ccc(=O)[nH]n1 (stereo not drawn)	/	-0.55
CCC(=O)N1CCN(CCN=CC2=C(O)CC(c3ccccc3)CC2=O)CC1 (stereo not drawn)	0.34	-0.05
O=C(CNS(=O)(=O)/C=C/c1ccccc1)OC1CCOC1=O (stereo not drawn)	/	1.5
N#Cc1c(-c2ccccc2)cc(-c2cccs2)nc1SCS(=O)Cc1ccccc1 (stereo not drawn)	20	-0.65
NNC(=O)CO/N=C/c1ccc(Cl)cc1Cl	-0.035	-0.4
Cc1cc(C)c(-n2nnnc2SCc2nc(N)nc(N3CCOCC3)n2)c(C)c1	-0.12	/
CC(OC(=O)c1cn(C)c2ccccc12)C(=O)N(C)c1ccccc1 (stereo not drawn)	/	-0.55
CC1=NC2(CCN(C(=O)Nc3ccc(F)cc3F)CC2)N=C1c1cccc(C(F)(F)F)c1	0.16	/
CC(=O)O/N=C/c1ccc(N(C)C)cc1	2	-1.2
CC1=NN(C2=NS(=O)(=O)c3ccccc32)C(C)(O)C1 (stereo not drawn)	/	-0.05
Cc1ccc(S(=O)(=O)CCC(=O)OCc2nnc(-c3ccccc3Br)o2)cc1	/	1.2
Cc1noc(C)c1COC(=O)c1cccnc1SCC(=O)Nc1ccc2c(c1)OCO2	/	-1.8
COc1cc(OC)c(NC(=O)c2sc3ncn(CC(=O)Nc4ccccc4OC)c(=O)c3c2C)cc1Cl	-0.83	/
OC1CCN(Cc2ccc(F)cc2)CC1	0.35	-0.35
Cc1nc(C(F)(F)F)c(C(N)=O)s1	-0.03	-1.5
CC1CC(C)CN(C(=O)c2ccc(NC(=O)c3ccc(=O)[nH]c3)cc2)C1 (stereo not drawn)	0.48	0.2
CCCc1cc(=O)n(-c2ccc(C(=O)O)cc2)[nH]1	/	-0.15
Cc1ccccc1NC(=O)c1ccccc1	0.11	-0.55
Cc1nc(-c2nnc(-c3ccc(C(F)(F)F)cc3)o2)cs1	-1.3	0.3
O=C(O)CCC(=O)N1CCC(N(C2CC2)S(=O)(=O)c2ccc(Cl)cc2)CC1	-0.86	/
Cc1ccc(C(=O)N/C(=C/c2ccccc2F)C(=O)NCc2ccco2)cc1	-0.015	/
Cc1ccc(NS(=O)(=O)c2ccc(OCC(=O)N3CCN(C)CC3)cc2)cc1	-0.89	1.1
CCS(=O)(=O)c1ccc(NC(=O)c2ccccc2)c(O)c1	-0.77	-0.05
CCOc1ccc(Br)cc1S(=O)(=O)n1cnc2ccccc21	0.15	0.05
CCN(CC)C(=O)c1sc(NC(=O)c2cc(-c3ccc(Br)cc3)nc3ccccc23)c(C#N)c1C	1.7	/
C=CCOC(=O)C1=C(C)Nc2[nH]c(=O)[nH]c(=O)c2C1c1ccc(O)cc1 (stereo not drawn)	-0.94	-0.5
CCOC(=O)c1c(SC)[nH]c2c(C(F)(F)F)cccc2c1=O	3.3	/
C=CCn1c(CCNC(=O)c2cccs2)nnc1SCC(=O)Nc1cccc(F)c1	0.11	-0.45
O=C1CSC(c2ccccc2)N1c1ccc(Cl)cc1 (stereo not drawn)	0.24	-0.4
COc1cccc2sc(NN)nc12	0.19	-0.6
CC(=O)N1C(=O)c2ccccc2C1=O	-5.4*	/
Nc1cc(C(=O)c2ccccc2)ccc1N1CCOCC1	/	1.8
CC1CCCC(C)N1Cn1nc(-c2ccccc2)n(-c2ccccc2)c1=S (stereo not drawn)	/	-0.45
NC(=O)CSc1nc2ccc(Cl)cc2s1	-0.55	/
CCOC(=O)c1ccc(N2C(=N)S/C(=C\c3ccc(F)cc3)C2=O)cc1	-0.32	/
CC(C)N(C(=O)CSc1ncnc2ccccc12)c1ccccc1	-0.45	0.85
COc1ccc(CCNC(=O)CSc2ncnc3sc4c(c23)CCCC4)cc1OC	-0.48	/
Oc1ccc(Nc2nc(-c3ccc(O)cc3)cs2)cc1	/	-0.9
COc1ccc(CCNC(=O)CSc2nc3ccccc3c(=O)n2NC(=O)CCc2c[nH]c3ccccc23)cc1OC	0.33	/
COc1ccc(C(=O)Nc2cc(Cl)cc(Cl)c2)c(OC)n1	-0.31	-0.65
CCn1c(=O)cc(OCC(=O)NCc2ccc(C)cc2)c2ccccc21	-0.32	1.1
CC(C)Cn1c(SCC(=O)c2ccc[nH]2)nnc1-c1ccco1	/	1.4
CC1Cc2ccccc2N1S(=O)(=O)c1ccc2c(c1)n(C)c(=O)c(=O)n2C (stereo not drawn)	0.38	-0.9
CN(C)S(=O)(=O)Nc1ccc(Oc2ccccc2)cc1	0.21	-0.7
COc1ccccc1-n1nnc(C(=O)Nc2nccs2)c1C	/	-0.2
(listing goes on)
SMILES	CapD inh	AID504770
CCN1CCN(C(=O)N[C@@H](C(=O)N[C@@H]2C(=O)N3C(C(=O)O)=C(CSc4nnnn4C)CS[C@H]23)c2ccc(O)cc2)C(=O)C1=O	3.1	/
O=C(Cc1ccc(Cl)cc1)N1CCOCC1	/	0.8
Cc1ncc([N+](=O)[O-])n1CCNS(=O)(=O)c1cc(Cl)ccc1Cl	-0.82	/
COCCCn1c(=O)cc(C)[nH]c1=S	-1.1	1.8
c1ccc2c(c1)nc(NCc1ccncc1)n2CCN1CCCCC1	0.59	-0.5
CN(CCC#N)C(=S)Nc1ccc(F)cc1	0.29	-1.6
CSc1scc(Cl)c1S(=O)(=O)C(C)C	-0.41	-0.45
CCc1ccc(OCCNc2nc(C)c(Br)c(=O)[nH]2)cc1	-0.37	0
CCC(=O)c1ccc(-c2ccccc2)cc1	0.73	/
O=C(O)C1CCCN1S(=O)(=O)c1ccccc1C(F)(F)F (stereo not drawn)	/	0.95
COc1ccc(C(N)=O)cc1NC(=O)c1ccc2c(=O)n(-c3ccc(OC)c(OC)c3)c(=S)[nH]c2c1	-1.1	/
CC(C)N1CCC(=NNc2cccc(C(=O)O)c2)CC1	/	-0.35
CC(C)CC(=O)Nc1ccc(C(=O)Nc2ccc(O)cc2)cc1	0.045	-0.8
C1CCc2sc(NCC3CCCO3)nc2C1 (stereo not drawn)	/	1.2
O=c1c2ccccc2c(C=Nc2cccc(O)c2)c(O)n1-c1cc(Cl)ccc1N1CCOCC1	/	-2.4
COc1cccc(C2=NOC(C(=O)N3CCCC3)C2)c1 (stereo not drawn)	-0.07	1.4
O=C(CSC(=O)c1sc2ccccc2c1Cl)Nc1ccc(Cl)cc1	-0.45	/
O=C(Cc1ccccc1)Nn1c(SCC(=O)c2ccccc2)nc2ccccc2c1=O	-1.7	0.4
O=C(NC1CCCCC1)c1ccc2c(Cl)c3c(nc2c1)CCCC3	-2.1	-0.15
Cc1cc(-c2ccccc2)nc2cc(C(=O)N3C(C)CCCC3C)nn12 (stereo not drawn)	/	-0.1
N#CCN(CC#N)C(=O)Cc1cccs1	/	1.6
CCn1nc(Nc2ccc(C)cc2)c(Cl)c1Nc1ccc(C)cc1	/	1.5
CN1CCN(c2ccc(CNC(=O)c3ccno3)cc2)CC1	-0.14	-0.1
O=S1(=O)CCN2C(=N1)Oc1ccc(Cl)cc12	/	-0.45
Cc1ccc(CN(C)C(=O)c2n[nH]c3ccccc23)o1	/	-0.75
CC(=O)N1C(=O)/C(=C\c2cccnc2)NC1=S	-2.5	-0.8
O=C(Cn1cccc1)NCCc1ccccc1	-0.72	-0.5
O/N=C(\c1ccccc1)C1CC2CCC1CC2 (stereo not drawn)	-0.55	-0.85
Brc1ccc(-c2ccon2)s1	1.1	/
Cc1ccc(-c2nc3cccc(C)c3nc2-c2ccc(C)cc2)cc1	-0.15	/
CCSc1sc(CC)cc1C1C(C(=O)Nc2cccc(C)n2)=C(C)NC2=C1C(=O)CCC2 (stereo not drawn)	6.3	/
COc1ccc(OCC(=O)Nc2ccc(-c3nc4ncccc4o3)cc2)cc1	/	0.4
O=C(NCc1cccc(C(F)(F)F)c1)c1ccc(OCc2ccnc(Cl)c2)cc1	-0.33	/
O=C1NC(=O)C(=CN2CCc3ccccc32)C(=O)N1	/	0.35
CCC(=O)Nc1cccc(-c2nc3ccccc3o2)c1C	0.45	0.7
O=C(OCc1ccc2c(c1)OCO2)c1ccccc1Br	-0.62	-0.4
O=C(Cn1nnc(-c2ccccc2)n1)NCCC1=CCCCC1	/	-0.35
C=CCOc1c(Br)cc(Br)c2cccnc12	0.43	0.75
O=C(NCc1ccccc1)c1cc2ccccc2[nH]1	/	0.65
O=C(OCC(=O)N(Cc1ccco1)C12CC3CC(CC(C3)C1)C2)c1cnccn1	/	1.6
CCc1ccc(NC2SC(=O)N(c3ccccc3)C2=O)cc1 (stereo not drawn)	-0.72	2.6
COc1ccc(Br)cc1S(=O)(=O)N1CCCN(S(=O)(=O)c2cc(Br)ccc2OC)CC1	1.2	/
COc1cccc(NC(=O)c2sc3nc4c(c(-c5ccco5)c3c2N)CCCCC4)c1	0.6	/
COc1ccc(OC)c(C2=NOC(C(=O)N3C(C)CCCC3C)C2)c1 (stereo not drawn)	4.5	0.4
Cc1ccn2cc(-c3cccc(NS(=O)(=O)c4cc(C)c(C)cc4C)c3)nc2c1	0.33	1.1
O=S(=O)(NCC1CCCO1)c1ccc2oc3ccc(S(=O)(=O)NCC4CCCO4)cc3c2c1 (stereo not drawn)	0.35	2.1
Cc1nc(C(F)(F)F)nc(N2CCCCC2)c1Oc1ccccc1	1.9	-0.8
CC(C)OC(=O)c1cc2ccccc2c(=O)s1	-0.6	-1.9
COc1ccc(Br)cc1/C=C1/N=C(c2cc(Cl)ccc2OC)OC1=O	1	/
COc1ccc(N2CN(S(=O)(=O)c3ccc(NC(C)=O)cc3)c3nc4ccccc4nc32)cc1	/	1.5
Continuation.
SMILES	CapD inh	AID504770
COC(=O)CN(C#N)c1nc(C)cc(C)n1	/	-0.2
CCCCCc1ccc(C(=O)NN)cc1	1.5	/
CC1CN=C(N(C(=O)Nc2cccc(Cl)c2)C2CCCCC2)S1 (stereo not drawn)	0.36	-0.35
CC(=O)Nc1ccc(N2S(=O)(=O)c3ccccc3S2(=O)=O)cc1	-0.11	-0.6
CC1(C)OC(=O)C(=Cc2ccccc2F)C(=O)O1	-0.74	1.2
O=C(O)c1ccccc1NCc1ccccn1	/	-1.1
Cc1cc(CN2CC(C)CC(C)C2)cc(C)c1O (stereo not drawn)	-0.085	/
CCCCn1c(=O)n(CC(=O)NC2CCCCC2C)c(=O)c2c1ncn2CCC(C)C (stereo not drawn)	/	-0.6
CCCc1nc2ccccc2c2c1C(=O)N(CCN(CC)c1cccc(C)c1)C2=O	-1.9	/
COc1ccc(C2=N/C(=C\c3ccc(OC)c(OC)c3)C(=O)O2)c(Br)c1	-1.6	/
COc1ccc(-c2cc3nc(C)c(CCC(=O)NC(C)c4cccs4)c(C)n3n2)c(OC)c1 (stereo not drawn)	0.11	-0.55
Cc1ccc(CN(C)S(=O)(=O)c2ccc(Cl)cc2C(F)(F)F)o1	/	-0.45
CN(C)C(=S)SCC(=O)c1ccc(Cl)cc1	-0.035	-0.5
N#CC1=C(N)C(C#N)(C#N)C(c2ccc(F)cc2F)C2CCCC=C12 (stereo not drawn)	1.6	/
O=C(CC1Nc2ccccc2NC1=O)Nc1ccc(O)cc1 (stereo not drawn)	/	-0.45
Cc1cc(C)nc(NNC2=CC(=O)CC(C)(C)C2)n1	/	-0.55
CC(C)OC(=O)CN1C(=O)c2ccc(C(=O)OC(C)C)cc2C1=O	3.4	0.65
CN1CCC(N(C)C(=O)CSc2ccc3ccccc3c2)CC1	0.28	0.45
O=C(CSc1nnc(-c2ccco2)o1)N1N=C2/C(=C/c3ccco3)CCCC2C1c1ccco1 (stereo not drawn)	/	-0.55
O=C(Nc1ccc(Cl)cc1)c1cc(-c2ccccc2)oc1-c1ccc(C(F)(F)F)cc1	35	/
CCOC(=O)c1c(C)[nH]c(C(=O)OCc2cccc(OC)c2)c1C	/	0.65
CCOC(=O)N1CCN(c2nc(-c3ccccc3F)nc3ccccc23)CC1	-0.36	/
Cc1ccc(NC(=O)CN2CCN(CCNS(=O)(=O)c3ccc(C)cc3)CC2)cc1	/	0.6
